Source: PubChem BioAssay (Broad Institute)
rRNA inh HTS: inhibits bacterial ribosomal RNA function over humanized ribosomes | AID 720706 | actives 1.6% (n = 350,000) | GFP signal change (wild-type ribosome), % (concentration not given with the values) | E. coli WT GFP vs humanized-ribosome RFP mutants, fluorescence, 24 h; hits give low values; DMSO median 0, no signal -100;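 active = significant combined selectivity score with lowered wild-type GFP, culture density cut under 30%, mutant RFP and density less affected; inactive = any of these conditions unmet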; also: one replicate is shown; some compounds called inactive have numbers as strong as hits
rRNA inh HTS OD600: also measured in rRNA inh HTS; calls as there; OD600 change, %; measured here: OD600 growth;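 optical density of the mix in the first replicate; 0 = DMSO median and -100 = no signal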
rRNA inh HTS RFP: also measured in rRNA inh HTS; calls as there; RFP signal change, %; measured here: RFP humanized mutant strains;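 first replicate; 0 = DMSO median and -100 = no signal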
Active calls of the source: *; & = joins results of further samples; ! = repeats disagree. The list is partial; count on the stated rates, not on these rows.

SMILES	rRNA inh HTS	rRNA inh HTS OD600	rRNA inh HTS RFP
C[C@H](NC(=O)C[C@@H]1CC[C@H](NS(=O)(=O)c2cccc(F)c2)[C@H](CO)O1)c1ccccc1	-1.2	3.4	1.9
O=S(=O)(N[C@@H]1CC[C@H](CCNS(=O)(=O)c2ccccc2Cl)O[C@@H]1CO)c1ccccc1	-1.6&2.6	-3.1&-0.6	0.9&4.1
O=C(NC[C@@H]1[C@H](c2ccccc2)[C@H](CO)N1C(=O)C1CC1)NC1CCCC1	-3.1	-8.0	-0.1
COc1ccc(OC)c2c1CCC1(C2)NC(=O)NC1=O (stereo unspecified)	5.9	13.9	1.1
CCS(=O)(=O)Nc1ccc2c(c1)C(=O)N(C)[C@@H]1CC[C@H](CC(=O)NC)O[C@H]1CO2	4.3	0.4	-1.5
C[C@H](CO)N1C[C@H](C)[C@H](CN(C)S(=O)(=O)c2ccc(Cl)cc2)Oc2c(NC(=O)Nc3ccccc3)cccc2C1=O	-7.0	-12.9	1.7
C[C@@H]1CN([C@@H](C)CO)C(=O)c2cccc(NC(=O)C3CCOCC3)c2O[C@H]1CN(C)Cc1ccncc1	3.1	-1.6	-0.1
CCN1[C@H](C(=O)N(C)C)[C@@H](CO)[C@@H]2Cn3c(ccc(-c4cccc(OC)c4)c3=O)[C@@H]21	0.1	6.9	-1.8
COc1ccc(CC(=O)NCCc2ccc3c(c2)OCO3)cc1OC	2.2	-6.5	-2.2
CCCNC(=O)C[C@@H]1C[C@H]2c3cc(NC(=O)COC)ccc3O[C@H]2[C@@H](CO)O1	6.1	9.5	0.2

Filtered by structure, the entries above containing a Cl atom (2)
SMILES	rRNA inh HTS	rRNA inh HTS OD600	rRNA inh HTS RFP
O=S(=O)(N[C@@H]1CC[C@H](CCNS(=O)(=O)c2ccccc2Cl)O[C@@H]1CO)c1ccccc1	-1.6&2.6	-3.1&-0.6	0.9&4.1
C[C@H](CO)N1C[C@H](C)[C@H](CN(C)S(=O)(=O)c2ccc(Cl)cc2)Oc2c(NC(=O)Nc3ccccc3)cccc2C1=O	-7.0	-12.9	1.7

Later entries
SMILES	rRNA inh HTS	rRNA inh HTS OD600	rRNA inh HTS RFP
CO[C@@H]1CN(C)C(=O)c2ccc(NS(C)(=O)=O)cc2OC[C@@H](C)N(C(=O)CN(C)C)C[C@@H]1C	2.3	14.1	0.4
CN(C)C(=O)C[C@@H]1CC[C@H]2[C@H](COc3ccc(NC(=O)C4CCOCC4)cc3C(=O)N2C)O1	1.0	1.9	-0.5
C[C@@H]1CN([C@@H](C)CO)C(=O)Cc2cc(NC(=O)CCC(F)(F)F)ccc2O[C@@H]1CN(C)Cc1ccncc1	0.4	0.5	-0.3
COCC(=O)N1CC2(C1)[C@@H](c1ccc(-c3ccc(F)cc3)cc1)[C@H](CO)N2C(=O)C1CC1	-0.4	-2.9	-0.5
CO[C@@H]1CN(C)C(=O)c2cc(NC(=O)C3CC3)ccc2OC[C@H](C)N(C(C)=O)C[C@H]1C	0.4	3.0	1.4
COc1cccc(CNC(=O)C[C@H]2CC[C@@H](NC(=O)C3CC3)[C@H](CO)O2)c1	-3.6	0.7	1.0
CC(=O)Nc1ccc(S(=O)(=O)N(CC(=O)NCC2CCCO2)Cc2ccccc2Cl)cc1 (stereo unspecified)	-7.6	-8.2	-0.2
COc1ccc2c3c(n(C)c2c1)[C@@H](CO)N(Cc1nccs1)CC31CCN(C(=O)CC2CC2)CC1	-0.6	-13.8	3.5
C[C@@H]1CCCCO[C@H](CN(C)S(=O)(=O)c2cccs2)[C@H](C)CN([C@H](C)CO)C(=O)c2cc(NC(=O)c3ccccc3)ccc2O1	0.5	-5.5	4.8
O=C(COC(=O)C1COc2ccccc2O1)c1ccccc1 (stereo unspecified)	14.1	8.6	-1.2
COC(=O)C[C@@H]1C[C@@H]2c3cc(NC(=O)Nc4ccc(F)cc4)ccc3O[C@@H]2[C@@H](CO)O1	-1.9	-0.1	0.6
COCCNC(=O)C[C@@H]1C[C@@H]2c3cc(NC(=O)Nc4ccc(C(F)(F)F)cc4)ccc3O[C@@H]2[C@H](CO)O1	-1.3	2.3	-4.6
COCC(=O)N1C[C@@H](C)[C@@H](OC)CN(C)C(=O)c2cc(NC(=O)c3ccc(OC)cc3)ccc2OC[C@H]1C	-2.4	-0.3	1.3
Cc1cc(C(=O)Nc2cccc3c2O[C@@H](CN(C)S(=O)(=O)c2c(C)noc2C)[C@@H](C)CN([C@@H](C)CO)C3=O)n(C)n1	-9.0	-4.6	2.5
CO[C@@H]1CN(C)C(=O)c2cc(NC(=O)CC(F)(F)F)ccc2OC[C@H](C)N(CC2CC2)C[C@H]1C	-0.5	9.0	0.3
CCC(=O)N(C)C[C@H]1Oc2cc(C#CC3(O)CCCC3)ccc2S(=O)(=O)N([C@@H](C)CO)C[C@H]1C	3.3	3.0	-5.1
COc1cccc(-c2cnc3c(c2)C(=O)N([C@H](C)CO)C[C@H](C)[C@@H](CN(C)C(=O)CC2CC2)O3)c1	-2.6	-0.3	3.4
COc1ccc(NC(=O)N(C)C[C@@H]2Oc3ccc(NC(=O)CCCCCC(=O)Nc4ccccc4N)cc3CC(=O)N([C@@H](C)CO)C[C@@H]2C)cc1	4.9	2.5	-0.7
COc1ccc2c3c([nH]c2c1)[C@@H](CO)NCC31CN(S(=O)(=O)c2cccc(C)c2)C1	-5.0	-5.9	0.1
CO[C@@H]1CN(C)C(=O)c2ccc(NC(=O)c3ccccc3F)cc2OC[C@@H](C)NC[C@@H]1C	-0.2	0.8	-1.4
CO[C@@H]1CC[C@@H]2CCOc3c(C#N)cccc3C(=O)N(C)C[C@H](c3ccccc3)CC(=O)N(C)C[C@H]1O2	1.7	12.9	1.7
COc1cccc(C(C)(O)c2nc(/C=C/c3ccccc3)cs2)c1 (stereo unspecified)	-53.4	-71.3	-8.9
O=C(C[C@@H]1CC[C@H]2[C@@H](COC[C@@H](O)CN2C(=O)Nc2ccccc2)O1)NC1Cc2ccccc2C1	-2.2	1.5	-0.9
COc1ccc2c3c([nH]c2c1)[C@H](CO)N(CC1CCOCC1)CC31CN(C(=O)C2CCOCC2)C1	3.1	5.9	-3.3
O=C(Cc1ccccc1)N[C@H]1C=C[C@H](CC(=O)N2CCCCC2)O[C@@H]1CO	3.9	3.4	1.6
CC(C)(C)OC(=O)N1CCC2CCN(S(C)(=O)=O)CC21 (stereo unspecified)	0.8	6.0	-2.1
Cc1noc(C)c1S(=O)(=O)N(C)C[C@H]1Oc2ccc(NS(C)(=O)=O)cc2CC(=O)N([C@@H](C)CO)C[C@H]1C	2.1	1.6	-2.6
C[C@H](CO)N1C[C@H](C)[C@H](CN(C)C(=O)NC2CCCCC2)Oc2c(NC(=O)NC3CCCCC3)cccc2C1=O	-3.0	-2.2	-3.6
CCNC(=O)C1(C)CCN1CCS(=O)(=O)c1ccc(C)cc1 (stereo unspecified)	-8.6	0.9	-4.2
CC(C)NC(=O)N1C[C@@H]2[C@H](c3ccccc31)[C@@H](CO)N2Cc1ccccc1	3.6	0.7	0.4
CN1C(=O)c2cc(NC(=O)c3cccc(F)c3)ccc2OC[C@H]2O[C@@H](CC(=O)NCC3CCCCC3)CC[C@@H]21	-25.1*!	-19.7*!	1.3*!
Cc1ccccc1S(=O)(=O)N1CC[C@H]2[C@H](CO)Nc3ccc(-c4ccc(F)cc4)cc3[C@H]21	-5.6	-28.6	0.1
Cc1cn([C@H]2C[C@H](O)[C@@H](/C=C/C(=O)NCCc3ccc4c(c3)OCO4)O2)c(=O)[nH]c1=O	4.5	6.6	-4.9
O=C(Nc1ccc(F)cc1)C(c1cc2ccccc2o1)N1CCN(CC(=O)N2CCCC2)CC1 (stereo unspecified)	-5.2	-1.0	-1.2
C[C@@H]1CN([C@@H](C)CO)C(=O)c2cc(/C=C/c3ccccc3)cnc2O[C@H]1CN(C)C(=O)Cc1cccnc1	-7.4	-15.2	3.7
COc1ccc(-c2ccc3c(c2)O[C@@H](CN(C)Cc2cccnc2)[C@H](C)CN([C@H](C)CO)S3(=O)=O)cc1	-32.0	-37.2	12.5
COc1ccc(C(=O)Nc2ccc3c(c2)C(=O)N(C)C[C@@H](OC)[C@H](C)CN(C(C)=O)[C@@H](C)CO3)cc1	1.4	-9.1	0.2
CN1C(=O)c2cc(NC(=O)Nc3ccc(F)cc3)ccc2OC[C@H]2O[C@H](CC(=O)NC3CCC3)CC[C@H]21	2.8	-1.4	-0.7
C[C@@H]1CN([C@@H](C)CO)C(=O)c2cc(Br)cnc2O[C@H]1CN(C)C(=O)c1ccccn1	4.9	2.5	-3.0
CCCCNC(=O)c1nc(C2CCN(S(=O)(=O)c3c(OC)cccc3OC)CC2)oc1-c1ccccc1	22.2	10.2	3.7
Cc1noc(C)c1NC(=O)Nc1ccc2c(c1)CC(=O)N([C@@H](C)CO)C[C@H](C)[C@H](CN(C)C(=O)Nc1cccc3ccccc13)O2	3.0	0.2	-1.9
O=C(C[C@@H]1C[C@H]2c3cc(NC(=O)Cc4ccncc4)ccc3O[C@H]2[C@@H](CO)O1)NCc1cccc(F)c1	0.0	13.2	-3.0
COc1cccc(-c2ccc3c(c2)[C@@H]2[C@@H](CCN2C(=O)C2CCCCC2)[C@H](CO)N3)c1	-9.1	-41.0	32.2
COc1ccc(NC(=O)N(C)C[C@@H]2Oc3ccc(NC(=O)NC4CCCCC4)cc3C(=O)N([C@H](C)CO)C[C@H]2C)cc1	0.1	10.3	-0.3
O=C(c1ccncc1)N1C[C@H]2[C@@H](c3ccccc31)[C@@H](CO)N2C(=O)CN1CCOCC1	1.5	-0.9	-0.3
O=C(Nc1ccc(-c2ccccc2)cc1)[C@H]1[C@H](CO)[C@H]2Cn3c(cccc3=O)[C@@H]1N2Cc1cncnc1	2.7	-6.1	2.9
CC(C)NC(=O)N(C)C[C@H]1Oc2cc(-c3ccccc3F)ccc2S(=O)(=O)N([C@H](C)CO)C[C@H]1C	-2.2	-5.2	-0.9
CC(=O)NC[C@H]1[C@H](c2ccc(-c3ccccc3)cc2)[C@H](CO)N1C(=O)C1CCC1	-1.5	-8.1	0.0
CCOC(=O)C(=O)N(C)c1c(CC)nc2c(OCc3ccccc3C)cccn12	5.8	5.6	1.4
CC1=C(C(=O)N2CCOCC2)CC(CC(=O)NC2CCCC2)C(=O)N1CCCN1CCCC1=O (stereo unspecified)	25.1	14.4	1.2

(continued)
SMILES	rRNA inh HTS	rRNA inh HTS OD600	rRNA inh HTS RFP
CC(C)NC(=O)N1CCCCN2[C@H](CO)[C@H](c3ccc(C#C[C@H](C)O)cc3)[C@H]2C1	5.4	11.9	2.7
CCS(=O)(=O)Nc1ccc2c(c1)C(=O)N(C)C[C@@H](OC)[C@@H](C)CN(C(=O)CN(C)C)[C@H](C)CO2	0.7	5.5	-0.5
CN1CCCCN2[C@H](CO)[C@H](c3ccc(-c4cccnc4)cc3)[C@@H]2C1	6.9	10.6	-2.4
C[C@H](CO)N1C[C@H](C)[C@H](CN(C)S(=O)(=O)c2cccs2)Oc2ccc(NC(=O)Cc3ccccc3)cc2C1=O	3.1	-13.0	-2.1
O=C(NC1CCCCC1)[C@H]1[C@H](CO)[C@H]2Cn3c(cccc3=O)[C@@H]1N2CC1CCCCC1	-0.2	-0.9	-0.4
COc1ccc(NC(=O)N2C[C@H]3[C@@H](c4ccccc42)[C@H](CO)N3C(=O)C2CCCC2)cc1	3.3	7.3	-1.5
CCCCn1nnnc1C1(C)CCC(=O)N1Cc1ccc(OC)c(OC)c1 (stereo unspecified)	4.0	-1.2	3.1
COc1ccccc1CN1[C@@H]2CN(C(=O)C3CCCC3)c3ccccc3[C@@H]2[C@@H]1CO	-8.1	-27.0	1.8
COc1ccccc1NC(=O)N[C@@H]1CC[C@H](CC(=O)NCc2ccc(Cl)c(Cl)c2)O[C@H]1CO	-11.9	-19.8	1.4
C[C@H](CO)N1C[C@H](C)[C@H](CN(C)C)Oc2ccc(NC(=O)C3CC3)cc2C1=O	1.8	0.8	-0.9
Cc1ccccc1NC(=O)C[C@H]1CC[C@H]2[C@@H](COc3ccc(NC(=O)c4ccc(Cl)cc4)cc3C(=O)N2C)O1	-3.1	-4.7	0.8
Cc1nc2ccc(C(=O)N3c4ccccc4N=C(c4ccc5c(c4)OCO5)C3C(=O)NCc3ccccc3)cc2[nH]1 (stereo unspecified)	-2.5	-8.2	-5.1
COc1cccc(S(=O)(=O)N[C@@H]2CC[C@H](CCn3cc(-c4ccccc4)nn3)O[C@@H]2CO)c1	-1.5	-7.5	4.2
CN(C)C(=O)c1ccc(-c2ccc([C@H]3[C@H]4CN(C(=O)C5CC5)CCCCN4[C@H]3CO)cc2)cc1	4.0	16.5	-3.0
COc1ccccc1CN1[C@H](CO)[C@H](c2ccccc2)C12CN(C(C)=O)C2	-0.1	5.7	0.5
CCCNC(=O)N1[C@H](C#N)[C@H](c2ccccc2-c2ccc(C)cc2)[C@@H]1CO	1.7	-19.1	-2.3
CN1c2ccc(-c3cccc(C#N)c3)cc2[C@H]2[C@H](CCN2S(=O)(=O)c2ccccc2)[C@@H]1CO	-0.4	-0.7	4.2
CCCNC(=O)Nc1ccc2c(c1)OC[C@@H](C)N(Cc1cncnc1)C[C@@H](C)[C@@H](OC)CN(C)C2=O	-3.3	-1.8	-0.9
CO[C@@H]1CN(C)C(=O)c2ccc(NC(=O)Nc3cc(F)ccc3F)cc2OC[C@@H](C)N(C)C[C@@H]1C	-5.4	-19.5	0.5

Complete entries, quoted from the list.
`COCCNC(=O)C[C@@H]1C[C@@H]2c3cc(NC(=O)Nc4ccc(C(F)(F)F)cc4)ccc3O[C@@H]2[C@H](CO)O1` reads rRNA inh HTS = -1.3; rRNA inh HTS OD600 = 2.3; rRNA inh HTS RFP = -4.6
`CN1c2ccc(-c3cccc(C#N)c3)cc2[C@H]2[C@H](CCN2S(=O)(=O)c2ccccc2)[C@@H]1CO` reads rRNA inh HTS = -0.4; rRNA inh HTS OD600 = -0.7; rRNA inh HTS RFP = 4.2
`CC(C)NC(=O)N1CCCCN2[C@H](CO)[C@H](c3ccc(C#C[C@H](C)O)cc3)[C@H]2C1` reads rRNA inh HTS = 5.4; rRNA inh HTS OD600 = 11.9; rRNA inh HTS RFP = 2.7
